# RecA intein inh: Mtb RecA intein splicing inhibition | actives 0.75% (n = 290,000) | AID 2221 | cell-free RecA intein splicing, fluorescence | P9WHJ3 | inhibition, %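 (about 9 µM by stock and volumes)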; in the data active means inhibition above about 30%; inconclusive means no clear call, values can overlap the other calls;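 further: 0% = vehicle wells and 100% = reference inhibitor control wells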
# Target sequence (P9WHJ3 whole entry, looked up): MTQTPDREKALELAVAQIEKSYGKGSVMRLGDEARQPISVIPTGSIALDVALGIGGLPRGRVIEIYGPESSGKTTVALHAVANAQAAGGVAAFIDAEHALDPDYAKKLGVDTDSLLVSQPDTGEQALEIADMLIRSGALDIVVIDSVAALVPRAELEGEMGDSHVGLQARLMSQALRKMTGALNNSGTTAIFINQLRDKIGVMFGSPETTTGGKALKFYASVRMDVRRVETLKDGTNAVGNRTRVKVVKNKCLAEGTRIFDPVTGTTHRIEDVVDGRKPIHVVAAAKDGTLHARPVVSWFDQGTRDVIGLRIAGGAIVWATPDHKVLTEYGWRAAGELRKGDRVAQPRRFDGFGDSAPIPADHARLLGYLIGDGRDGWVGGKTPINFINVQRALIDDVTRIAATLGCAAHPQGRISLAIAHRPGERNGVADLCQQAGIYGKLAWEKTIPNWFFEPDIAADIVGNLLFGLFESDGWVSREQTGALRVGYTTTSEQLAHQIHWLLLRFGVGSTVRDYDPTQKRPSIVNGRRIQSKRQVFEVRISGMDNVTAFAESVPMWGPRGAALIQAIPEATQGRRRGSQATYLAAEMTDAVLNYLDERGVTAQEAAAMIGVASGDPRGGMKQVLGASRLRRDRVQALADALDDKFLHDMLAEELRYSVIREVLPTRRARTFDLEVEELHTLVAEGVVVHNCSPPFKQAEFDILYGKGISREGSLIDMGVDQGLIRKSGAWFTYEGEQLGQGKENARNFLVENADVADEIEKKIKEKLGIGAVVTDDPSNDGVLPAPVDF
# YopH PTP inh: blocks Yersinia enterocolitica YopH tyrosine phosphatase | inhibition, %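 (about 10 µM by stock and volumes)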 | AID 898 | actives 0.16% (n = 140,000) | fluorescence Ex485/Em525;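 active means inhibition of 50% or more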;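 further: controls were vehicle for no effect and minimum signal wells for full effect; inactives centre near -20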
# Mtb H37Rv: M. tuberculosis H37Rv growth inhibitors, H37Rv strain (AID 1626) | M. tuberculosis H37Rv growth inhibition; higher % means a stronger effect | actives 0.95% (n = 220,000) | inhibition, % at 10 µM, or IC50 in µM where a hit was titrated;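 active means confirmed in a dose series; inconclusive means inhibition above 80% but not taken into the dose series; inactive means below 80% or under 30% at every dose of the series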;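 further: bacteria incubated seven days before Alamar blue readout; 0% = bacteria only wells and 100% = bacteria with antibiotic wells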
# Arbovirus anti: arbovirus infection inhibition | arbovirus infection cell-based antiviral screen | inhibition, % at 10 µM | actives 0.37% (n = 200,000) | AID 1251;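 active means inhibition from about 30%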;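 further: bluetongue infection of BSR cells; cell survival read as ATP light after 72 h; 0% = infected wells without compound and 100% = uninfected wells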
# Mtb betalactam: beta-lactam sensitization of Mtb H37Rv; M. tuberculosis H37Rv growth with meropenem, percent inhibition; hits of this screen are not shown here; inhibition, % at 25 µM; actives 0.27% (n = 330,000); AID 434955;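 active means about 74% or more and at least 40 points above the plate without the antibiotic, then above 30% in a dose series; inconclusive means first-round hits that could not be retested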;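 further: growth measured after seven days incubation then overnight dye step; 0% = bacteria only wells and 100% = bacteria with antibiotic; twin plates without the antibiotic show which effects depend on it; some results filed as inactive read as strong as hits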
# Arbovirus anti repeat: also measured in Arbovirus anti; calls as there; inhibition, %; measured here: 10K subset replicate screen; many hits read low in the repeat;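 first of two repeat runs on a subset; 0% = infected and 100% = uninfected wells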
# Active calls of the source: *; ? = inconclusive; . = no result given. Some of the compounds tested (hit frequency here may not be typical).
SMILES,RecA intein inh,YopH PTP inh,Mtb H37Rv,Arbovirus anti,Mtb betalactam,others
CCOC(=O)C1=C(C)N(C)C(=S)NC1c1ccc(Cl)cc1Cl (stereo not drawn),5.7,-4,6%,2,4,
CCc1cccc(C)c1NC(=O)c1cccnc1,-1.7,.,.,.,2,
COc1ccc(-c2nc(C#N)c(N3CCC(C)CC3)o2)cc1,0.4,.,.,.,-1,
CCCCN(CC)CCNC(=O)c1cn(-c2ccc(Cl)cc2)c(=O)c2ccccc12,1.6,.,9%,-5,4,
COc1ccc(-c2nc(C#N)c(NCCCn3ccnc3)o2)cc1OC,-0.8,-5,9%,-4,-17,
Clc1ccc(-c2noc(CSc3nnc(Cc4cccs4)n3-c3ccccc3)n2)cc1,26,-16,11%,-32,23,
Fc1ccc(-n2nnnc2-c2ccccc2Cl)cc1,1.8,.,-8%,-2,3,
O=C(NCCCO)c1cc([N+](=O)[O-])cc2c1C=Cc1ccccc1O2,0.8,.,-9%,3,4,
CC(=O)Nc1ccc(Nc2nc(-c3sc(NC(C)=O)nc3C)cs2)cc1,-0.5,.,.,.,-2,
S=C1NCN(Cc2cccnc2)CN1Cc1ccccc1,-0.2,.,1%,.,-5,
COCCNS(=O)(=O)c1cc(C)c(C)cc1C,-3.5,-25,-5%,-5,3,
COc1ccc(NC(=O)CCCn2c(=O)oc3ccccc32)cc1Cl,-0.1,-24,?,-1,67,
COc1ccc(NC(=O)CC(c2ccc(F)cc2)c2ccc(OC)cc2)cc1 (stereo not drawn),1.1,-15,1%,-3,-2,
CNC(=O)COC(=O)/C=C/c1cn(-c2ccccc2)nc1-c1ccc2c(c1)OCCO2,1.3,.,11%,7,3,
O=C(CN(c1ccc(F)cc1)S(=O)(=O)c1ccccc1)Nc1ccccc1C(=O)O,-0.7,.,5%,7,-5,
CCN=C1SC(CC(=O)NC2CCCCC2)C(=O)N1CC (stereo not drawn),-0.6,-27,3%,0,59,
C=CCc1cc(OC)ccc1OCCON1C(=O)CCC1=O,-0.1,-16,-9%,0,1,
Cc1cc(/C=C2/NC(=O)NC2=O)c(C)n1-c1sc2c(c1C#N)CCCC2,3.3,-10,6%,-9,-7,
Cc1cc2cc(CN3C(=O)c4ccccc4C3=O)ccc2n1C,-2.3,-33,-14%,3,-10,
CCCNS(=O)(=O)c1ccc(OCC(=O)NCCC2=CCCCC2)cc1,1.4,-3,14%,1,-7,

# Gathered by group: those above with nitrogen in an aromatic ring
SMILES,RecA intein inh,YopH PTP inh,Mtb H37Rv,Arbovirus anti,Mtb betalactam,others
CCc1cccc(C)c1NC(=O)c1cccnc1,-1.7,.,.,.,2,
COc1ccc(-c2nc(C#N)c(N3CCC(C)CC3)o2)cc1,0.4,.,.,.,-1,
CCCCN(CC)CCNC(=O)c1cn(-c2ccc(Cl)cc2)c(=O)c2ccccc12,1.6,.,9%,-5,4,
COc1ccc(-c2nc(C#N)c(NCCCn3ccnc3)o2)cc1OC,-0.8,-5,9%,-4,-17,
Clc1ccc(-c2noc(CSc3nnc(Cc4cccs4)n3-c3ccccc3)n2)cc1,26,-16,11%,-32,23,
Fc1ccc(-n2nnnc2-c2ccccc2Cl)cc1,1.8,.,-8%,-2,3,
CC(=O)Nc1ccc(Nc2nc(-c3sc(NC(C)=O)nc3C)cs2)cc1,-0.5,.,.,.,-2,
S=C1NCN(Cc2cccnc2)CN1Cc1ccccc1,-0.2,.,1%,.,-5,
COc1ccc(NC(=O)CCCn2c(=O)oc3ccccc32)cc1Cl,-0.1,-24,?,-1,67,
CNC(=O)COC(=O)/C=C/c1cn(-c2ccccc2)nc1-c1ccc2c(c1)OCCO2,1.3,.,11%,7,3,
Cc1cc(/C=C2/NC(=O)NC2=O)c(C)n1-c1sc2c(c1C#N)CCCC2,3.3,-10,6%,-9,-7,
Cc1cc2cc(CN3C(=O)c4ccccc4C3=O)ccc2n1C,-2.3,-33,-14%,3,-10,

# Next part:
SMILES,RecA intein inh,YopH PTP inh,Mtb H37Rv,Arbovirus anti,Mtb betalactam,others
O=C(/C(=C(\O)c1ccccc1)c1nc2ccccc2[nH]1)c1ccccc1,-9.8,.,-7%,.,53,
Cc1ccc(OCC(=O)N2CCN(C3=NS(=O)(=O)c4ccccc43)CC2)cc1,5.0,-12,-1%,6,-6,
Cc1cc(C)c(S(=O)(=O)c2ccccc2)c(OC(=O)c2c(F)cccc2F)n1,2.6,.,-1%,27,0,
Cc1nn(-c2ccccc2)nc1C(=O)Oc1cc(C(F)(F)F)nn1-c1ccccc1,.,.,4%,.,-3,
Cc1cccc(CCNC(=O)c2cc(S(=O)(=O)N3CCOCC3)cn2C)c1,0.4,.,.,.,-9,
O=c1c2[nH]c3ccc(F)cc3c2nc2n1CCS2,1.2,.,-2%,6,1,
O=C(NC1CCN(Cc2ccccc2)CC1)c1cccc(OC(F)F)c1,-0.3,.,.,.,6,
CCN(CCCNC(=O)C1CCN(S(=O)(=O)c2cnc[nH]2)CC1)c1cccc(C)c1,-1.7,-42,2%,8,-6,
O=C(CN(Cc1ccccc1)C(=O)c1csnn1)NCCc1ccccc1,2.6,.,.,.,0,
CCn1cc(/C=N\NC(=O)C2(C)CC2(Cl)Cl)c(C)n1 (stereo not drawn),-0.5,-35,-8%,1,-5,
CCCOC(=O)CSc1nc(N2CCOCC2)c2c(c1C#N)CC(C)(C)OC2,1.0,.,.,.,99,
CCc1cc(C(=O)NNC(=O)CCl)sc1C,7.6,.,76%,13,99,
O=C(Nc1cccc(O)c1)C1CC(c2cccc(Br)c2)=NO1 (stereo not drawn),2.3,.,.,.,2,
O=C(COC(=O)c1cccs1)Nc1ccccc1[N+](=O)[O-],0.0,.,63%,6,16,
CCOc1ccccc1-n1c(SCC(=O)NC(C)(C)C)nnc1-c1ccoc1C,4.0,-29,8%,2,-4,
Cc1nc(-c2ccccc2)cs1,0.0,-25,-6%,6,-6,
Cc1ccc(CNC(=O)CCS(=O)(=O)c2cc(Br)cc3c2N(C(=O)C2CC2)CC3)o1,-1.0,-21,3%,3,-1,
CN1CCN(C(CNC(=O)C(=O)NC2CCCCC2)c2ccc(F)cc2)CC1 (stereo not drawn),-1.1,.,.,.,-1,
Nc1nc(Nc2cccc(F)c2)nc(NCc2ccco2)c1[N+](=O)[O-],.,.,14%,.,11,
O=C(CSCc1ccccc1)N1CCc2ccccc21,3.6,-36,1%,4,1,
COc1ccc(C(=O)N2CCC(O)(c3ccc(Cl)cc3)CC2)cc1OC,-0.1,.,6%,.,0,
COc1cccc(/C=C2\SC(=S)N(CCCC(=O)NC3=NCCS3)C2=O)c1,5.0,.,.,.,17,
CC(=O)Nc1ccc(NC(=O)CSc2nc3c([nH]c4ccccc43)c(=O)n2-c2ccccc2F)cc1,-2.9,.,.,.,4,
Cc1cccc(-n2c(=S)[nH]c3sc4c(c3c2=O)CCc2ccccc2-4)c1,18,.,?,10,.,
COc1ccc(NS(=O)(=O)c2ccc(C(=O)N3CCN(Cc4ccccc4)CC3)cc2)cc1,1.2,.,8%,10,7,
O=C(NNC(=O)c1ccccc1F)c1cccs1,3.2,.,.,.,1,
COCCN(C(=O)CSc1nnc(-c2ccc(Cl)cc2)o1)c1c(N)n(CC(C)C)c(=O)[nH]c1=O,-1.7,.,.,.,-14,
CCCCCCCCn1cnc2c(N)c(C)c(C)cc21,21,-40,16µM*,-31,100,
COc1cc(C(=O)N/N=C/c2ccc(OC(=O)c3cccc(C)c3)c(OC)c2)ccc1O,7.2,.,.,.,13,
CCC/C=N/NC(=O)c1cc(-c2ccccc2)nc2ccccc12,-3.3,-39,4%,-3,-12,
C=CCn1c(SCC(=O)NC(=O)NC)nnc1C1CCCCC1,2.5,.,-13%,5,7,
CC(C)N1CCN(c2ccc(O)cc2)CC1,-6.0,-29,-10%,-26,-1,
Cc1cccc(N2CCN(C(=O)CCCSc3nc4ccccc4[nH]3)CC2)c1C,12,7,6%,-27,74,
O=C(N/C(=C/c1ccco1)C(=O)N1CCCCCC1)c1ccccc1,-1.7,.,.,.,-3,
O=c1oc(-c2cccnc2)nc2ccccc12,0.6,-31,9%,-1,-4,Arbovirus anti repeat=1
CC(=O)C(C(C)=O)C1(O)C(=O)c2ccccc2C1=O,4.2,98*,-3%,-10,8,
Cc1noc(C)c1CN1C(=O)NC2(CCc3ccccc3C2)C1=O (stereo not drawn),-0.4,-41,0%,1,-2,
CCC(C)[C@H]1CNCCN1CCc1cccc(F)c1 (stereo partly drawn),-1.2,.,.,.,-10,
CCn1c(-c2ccccc2)ccc(C#N)c1=O,-0.8,-12,-9%,1,3,
Cc1ccc2[nH]c(=O)c(CN(Cc3ccccc3Cl)C(=O)N3CCOCC3)cc2c1,1.3,-42,1%,-13,3,
COc1ccccc1CNC(=O)CCCn1nc(C)c2c(C)n(-c3ccccc3)nc2c1=O,0.2,.,.,.,-6,
COc1ccc(CCNCC(O)COc2cccc(Br)c2)cc1 (stereo not drawn),1.2,.,-2%,-22,4,
O=C(CN1CCc2ccccc2C1)Nc1ccc(F)cc1F,0.0,.,9%,4,-4,
COc1cc(C(=O)NNC(=O)c2cccn2C)cc(OC)c1OC,1.1,.,.,.,-1,
CCOC(=O)C(=Cc1ccc(F)cc1)C(=O)OCC,-2.4,-33,2%,-24,?,
C=CCn1cc(C(=O)OC)c(=O)c2cc(S(=O)(=O)N(CC)CC)ccc21,-1.8,-31,-3%,-12,3,
CCCCCC(=O)Nc1ccc(N2CCN(C(=O)CCC)CC2)cc1,-1.6,-5,6%,-2,2,
O=C(Nc1nnc(SCc2cccnc2)s1)C1CC(=O)N(c2ccccc2)C1 (stereo not drawn),-0.4,.,.,.,-5,
Cc1nc(-c2ccccn2)sc1C(=O)Nc1ccc(F)cc1F,-3.1,-23,3%,0,-3,
CCOC(=O)c1[nH]c(COC(=O)c2ccccc2NC(=O)c2ccco2)c(C(=O)OCC)c1C,1.3,-82,4%,3,-14,

# Entries listed so far that contain a furan ring, fused or not:
SMILES,RecA intein inh,YopH PTP inh,Mtb H37Rv,Arbovirus anti,Mtb betalactam,others
CCOc1ccccc1-n1c(SCC(=O)NC(C)(C)C)nnc1-c1ccoc1C,4.0,-29,8%,2,-4,
Cc1ccc(CNC(=O)CCS(=O)(=O)c2cc(Br)cc3c2N(C(=O)C2CC2)CC3)o1,-1.0,-21,3%,3,-1,
Nc1nc(Nc2cccc(F)c2)nc(NCc2ccco2)c1[N+](=O)[O-],.,.,14%,.,11,
O=C(N/C(=C/c1ccco1)C(=O)N1CCCCCC1)c1ccccc1,-1.7,.,.,.,-3,
CCOC(=O)c1[nH]c(COC(=O)c2ccccc2NC(=O)c2ccco2)c(C(=O)OCC)c1C,1.3,-82,4%,3,-14,

# New compounds follow:
SMILES,RecA intein inh,YopH PTP inh,Mtb H37Rv,Arbovirus anti,Mtb betalactam,others
Cc1nn(C(C)C(=O)Nc2ccccc2Cl)c(=O)c2nn(-c3ccccc3)c(C)c12 (stereo not drawn),-0.8,.,.,.,2,
Cc1ccc(C)c(OCc2cc(C(=O)NC3CCOC(C)(C)C3)no2)c1 (stereo not drawn),1.9,.,.,.,?,
O=C(C1CCCN(S(=O)(=O)c2cccc3nonc23)C1)N1CCN(c2ccccc2)CC1 (stereo not drawn),8.7,-22,8%,2,-2,
COc1ccc2c(c1)CCc1cn3nc(C)cc3nc1-2,-72,.,2%,-7,50,
O=C(COC(=O)CCC(=O)c1ccc(F)cc1)Nc1ccc2[nH]c(=O)[nH]c2c1,-2.4,.,.,.,-7,
Oc1oc(-c2ccccc2)nc1C=NCc1ccncc1,.,-23,-1%,4,2,
COCc1cc(=O)[nH]c(=S)[nH]1,-1.4,-28,-4%,11,6,
Cc1ccc(N2CCN(CCCCN3C(=O)C4CCCN4C3=O)CC2)cc1 (stereo not drawn),-4.5,-21,-4%,7,6,

# Screening results from PubChem BioAssay.
